Screening results (PubChem)
CHRM5 agonist = CHRM5 agonism in calcium assay. AID 624037. P08912. CHO-K1 hM5 cells, Fluo-8 calcium fluorescence; 0% DMSO wells, 100% maximal acetylcholine response. activation, % at 3 µM. hit rate 0.19% among 360,000;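 active = activation above the run's mean over test compounds plus 3 SD, cut at about 23% in these data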;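 also: signal is peak over basal fluorescence ratio across the kinetic read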
M4 PAM = positive allosteric modulators of human muscarinic M4 receptor | hit rate 0.4% among 360,000 | activation, % at 3 µM | AID 624126 | CHO-K1 hM4/Gqi5, Fluo-8 calcium fluorescence, ACh EC20; 0% = ACh EC20, 100% = maximal ACh | P08173;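 active = activation above its plate's cutoff, the mean activation of sample wells plus 3 SD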; also: some results filed as inactive read as strong as hits
Target sequence (P08173 whole entry, looked up): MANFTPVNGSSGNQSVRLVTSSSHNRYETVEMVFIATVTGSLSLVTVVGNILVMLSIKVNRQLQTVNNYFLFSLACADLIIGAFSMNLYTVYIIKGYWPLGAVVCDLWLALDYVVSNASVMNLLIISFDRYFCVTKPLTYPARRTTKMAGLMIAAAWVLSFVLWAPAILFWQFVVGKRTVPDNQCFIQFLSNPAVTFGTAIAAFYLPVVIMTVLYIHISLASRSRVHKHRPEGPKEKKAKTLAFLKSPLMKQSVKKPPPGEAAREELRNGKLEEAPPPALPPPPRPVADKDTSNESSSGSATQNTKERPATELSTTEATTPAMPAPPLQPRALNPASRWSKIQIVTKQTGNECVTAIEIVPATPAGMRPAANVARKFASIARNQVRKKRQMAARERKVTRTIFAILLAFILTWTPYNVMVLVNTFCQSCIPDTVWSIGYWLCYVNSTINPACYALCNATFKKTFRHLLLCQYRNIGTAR
CHRM5 antagonist = blocks acetylcholine activation of human M5 receptor; P08912; CHO-hM5 cells, Fluo-8 calcium fluorescence, ACh EC80; inhibition, % at 3 µM; hit rate 0.59% among 360,000; AID 624040;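 active = inhibition above a per-plate cutoff, the mean of that plate's test compounds plus 3 SD, cut at about 27% in these data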;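 also: 0% = acetylcholine EC80 with DMSO and 100% = DMSO without agonist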
CHRM5 PAM = positive allosteric modulators of human muscarinic M5 receptor | P08912 | CHO-K1 hM5, Fluo-8 calcium, ACh EC20 PAM; 0% = ACh EC20, 100% = ACh EC100 | activation, % at 3 µM | hit rate 0.3% among 360,000 | AID 624038;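 active = activation above the run cutoff, the mean activation of all test compounds plus 3 SD, cut at about 18% in these data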
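system = human M5 receptor in CHO-K1 cells | reagent = EC20 acetylcholine as agonist stimulus | compound dosing = single-point, 3 µM nominal | incubation = Fluo-8 loading 80 min at 37 °C plus 30 min room temperature | detection = Fluo-8 calcium dye fluorescence, kinetic read | benchmarks = low control EC20 acetylcholine (0%), high control EC100 acetylcholine (100%)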
CRFR2-BP antag = antagonists of CRF-binding protein/CRF-R2 receptor complex. HEK293 CRF-R2/CRF-BP, CRF-induced calcium fluorescence. inhibition, % at 11.8 µM. hit rate 0.59% among 350,000. AID 588475;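 active = inhibition of the ligand-induced calcium signal above about 50% at the single tested concentration, limit read from the data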
Numbers without * were called inactive; & = joins results of further samples. A portion of the library; count on the stated rates, not on these rows.

SMILES	CHRM5 agonist	M4 PAM	CHRM5 antagonist	CHRM5 PAM	CRFR2-BP antag
COc1ccc(C[C@H]2NC[C@H](O)[C@H]2OC(C)=O)cc1	-1	10	-3	-5	7
NCCc1ccc(O)cc1	0	6	-3	2	12
CCN1C[C@@]2(COC)C3[C@@H](OC)[C@H]4[C@@H]1[C@@]3(C1C[C@@]3(O)[C@H](OC(=O)c5ccccc5)C1[C@]4(OC(C)=O)[C@@H](O)[C@H]3OC)[C@@H](OC)C[C@H]2O (some centres not stated)	1	5	1	5	-4
Cc1ccc(-c2nc(N(C)C3CCN(C)CC3)c3ccccc3n2)cc1	-3	16	8	2	-40
CC(C)[C@@]1(NC(=O)[C@@H]2C[C@@H]3c4cccc5[nH]cc(c45)C[C@H]3N(C)C2)O[C@@]2(O)[C@@H]3CCCN3C(=O)[C@H](Cc3ccccc3)N2C1=O	1	-9	-3	-2	-30
CC(Cc1ccccc1)NC(=O)/C=C/C(=O)O (configuration not stated)	0	2	3	1	-9
c1ccc(Cn2ccnc2)cc1	3	4	-2	2	-26
CCC1C2CC3C4N(C)c5ccccc5C45CC(C2C5O)N3[C@@H]1O (some centres not stated)	-3	5	10	-1	-4
C#CCN(C)[C@H](C)Cc1ccccc1	0	-4	-1	-4	3
CN1CCC23c4c5ccc(O)c4O[C@@H]2[C@H](O)C=CC3C1C5 (some centres not stated)	1	-3	0	0	1
O=[N+]([O-])c1cc([As](=O)(O)O)ccc1O	36*	6	-2	-13	9
C[C@]12CC[C@H]3[C@@H](CCC4=CC(=O)CC[C@@]43C)[C@@H]1CC[C@@H]2O	1&3	-5&0	4&8	-1&-4	0&1
CC(NC(C)(C)C)C(=O)c1cccc(Cl)c1 (configuration not stated)	-1	-4	7	-2	12
C[C@@H]1O[C@@H](O[C@@H]2C=C3CCC4C(CC[C@]5(C)[C@@H](c6ccc(=O)oc6)CC[C@]45O)[C@@]3(C)CC2)[C@H](O)[C@H](O)[C@H]1O (some centres not stated)	-1	1	-2	-2	7
C=C1[C@H]2CC[C@H]3[C@]4(C)C[C@H](O[C@H]5O[C@H](CO)[C@@H](OS(=O)(=O)O)[C@H](OS(=O)(=O)O)[C@H]5OC(=O)CC(C)C)C[C@@H](C(=O)O)[C@H]4CC[C@]3(C2)[C@H]1O	0	-2	0	-4	-2

Structures from the list above that have a carbonyl joined to an NH by a bond outside any ring:
SMILES	CHRM5 agonist	M4 PAM	CHRM5 antagonist	CHRM5 PAM	CRFR2-BP antag
CC(C)[C@@]1(NC(=O)[C@@H]2C[C@@H]3c4cccc5[nH]cc(c45)C[C@H]3N(C)C2)O[C@@]2(O)[C@@H]3CCCN3C(=O)[C@H](Cc3ccccc3)N2C1=O	1	-9	-3	-2	-30
CC(Cc1ccccc1)NC(=O)/C=C/C(=O)O (configuration not stated)	0	2	3	1	-9

Laid out differently: entries from further up.
Fields: CHRM5 agonist	M4 PAM	CHRM5 antagonist	CHRM5 PAM	CRFR2-BP antag
> C#CCN(C)[C@H](C)Cc1ccccc1
    0	-4	-1	-4	3
> CN1CCC23c4c5ccc(O)c4O[C@@H]2[C@H](O)C=CC3C1C5 (some centres not stated)
    1	-3	0	0	1
> O=[N+]([O-])c1cc([As](=O)(O)O)ccc1O
    36*	6	-2	-13	9
> C[C@]12CC[C@H]3[C@@H](CCC4=CC(=O)CC[C@@]43C)[C@@H]1CC[C@@H]2O
    1&3	-5&0	4&8	-1&-4	0&1
> CC(NC(C)(C)C)C(=O)c1cccc(Cl)c1 (configuration not stated)
    -1	-4	7	-2	12
